gsp ag: qHTS for Agonist of gsp, the Etiologic Mutation Responsible for Fibrous Dysplasia/McCune-Albright Syndrome: qHTS; AID 624287, 2012; gsp mutant cells, cAMP HTRF, 30 min; control for the full effect not named in the record; actives 0.13% (n = 340,000); Potency, µM (highest dose often 76.9 µM), for inactives: at the highest dose activation (cAMP increase), actives largely listed as activators; active = well fitted activation curve with a large enough effect; inconclusive = small, poorly fitted or top-dose-only effect, or another doubt; inactive = no such curve, though single readings can be large or run the other way; cell line not stated here;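 note: phosphodiesterase inhibitor Ro 20-1724 added with compounds to block cAMP breakdown; potency is the fitted concentration of half-maximal effect; nearly all actives have a fitted effect of over 60% in size; about a fifth of the inactives were tested at one dose only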
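Cells in DMEM/10% FBS with G418 were pretreated with compounds in DMSO plus […] (300 uM stock) for 30 min at 37C. cAMP was measured by HTRF (cAMP-d2 plus anti-cAMP antibody-K) after 30 min at room temperature.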
TRPV1 PAM: HTS Assay for Compounds that Act as Potentiators of the Vanilloid Receptor 1. TRPV1-expressing cells, Fluo-8 calcium influx, capsaicin EC20 potentiation; host cell line not named in the record; control for the full effect not named in the record. potentiation, % at 8.33 µM. actives 0.02% (n = 320,000). AID 540277, 2011; active means potentiation above 80%; inconclusive means 30% to 80%; inactive means below 30%; note: 0% is about no effect
Target sequence (Q8NER1 whole entry, looked up): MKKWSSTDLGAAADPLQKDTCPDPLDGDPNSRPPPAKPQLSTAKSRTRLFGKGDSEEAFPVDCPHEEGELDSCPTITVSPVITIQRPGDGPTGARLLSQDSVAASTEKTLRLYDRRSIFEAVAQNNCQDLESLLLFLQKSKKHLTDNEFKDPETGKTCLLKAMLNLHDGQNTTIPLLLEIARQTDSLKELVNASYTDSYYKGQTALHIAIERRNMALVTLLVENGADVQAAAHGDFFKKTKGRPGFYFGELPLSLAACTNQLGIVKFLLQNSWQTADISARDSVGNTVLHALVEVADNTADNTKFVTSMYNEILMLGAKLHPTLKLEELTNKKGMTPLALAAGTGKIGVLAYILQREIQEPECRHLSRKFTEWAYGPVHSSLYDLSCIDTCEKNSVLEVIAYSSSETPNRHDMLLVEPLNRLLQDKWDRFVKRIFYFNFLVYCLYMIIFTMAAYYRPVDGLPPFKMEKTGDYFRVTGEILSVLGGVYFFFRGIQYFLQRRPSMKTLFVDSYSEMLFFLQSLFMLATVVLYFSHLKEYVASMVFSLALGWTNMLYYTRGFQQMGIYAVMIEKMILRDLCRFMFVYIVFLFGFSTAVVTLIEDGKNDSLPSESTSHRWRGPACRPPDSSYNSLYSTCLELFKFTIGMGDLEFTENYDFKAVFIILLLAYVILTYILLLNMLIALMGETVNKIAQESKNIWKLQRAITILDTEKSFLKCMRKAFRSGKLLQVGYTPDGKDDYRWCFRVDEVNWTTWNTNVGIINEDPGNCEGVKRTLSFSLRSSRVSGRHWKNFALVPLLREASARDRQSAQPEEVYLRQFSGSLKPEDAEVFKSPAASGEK
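Fluo-8 calcium influx in TRPV1-expressing cells, kinetic read (ex 480/em 520 nm). Compound added and read 3 min for agonist activity, followed by capsaicin at EC20 final and 2 min further read for enhancement.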
Menin-MLL FL inh: qHTS Assay for Inhibitors Targeting the Menin-MLL Interaction in MLL Related Leukemias: Competition With Fluorescein Labeled MLL-derived Peptide; FP activity change, % at 61.4 µM; 290,000 tested, under 10 active; Fluorescence polarization, fluorescein-MLL peptide displacement from menin; inconclusive = falling polarisation curve, or a change in total fluorescence; inactive = total fluorescence flat and polarisation flat or rising; no compound was filed as active; the % refers to the polarisation; negative = inhibition;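 note: % of control where 0% means no effect; inhibitors lower the polarisation; unlabelled MLL peptide was the positive control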
ClpP mod: qHTS Assay for Activators of ClpP. purified B. subtilis ClpP, FRET peptide cleavage, 20 min. Potency, µM (highest dose often 57.5 µM), without a hit: at the top dose activity change, negative = active. actives 1.9% (n = 340,000). AID 651965, 2013; active = well fitted falling curve with a large enough effect; inconclusive = small, poorly fitted or top-dose-only effect; inactive = no such curve, though single readings can be large or run the other way; note: potency is the fitted concentration of half-maximal effect; the source files actives as falling curves though it sought activators and does not explain the sign; nearly all actives have a fitted effect of over 65% in size; many hits overshoot -100%
Target sequence (P80244 whole entry, looked up): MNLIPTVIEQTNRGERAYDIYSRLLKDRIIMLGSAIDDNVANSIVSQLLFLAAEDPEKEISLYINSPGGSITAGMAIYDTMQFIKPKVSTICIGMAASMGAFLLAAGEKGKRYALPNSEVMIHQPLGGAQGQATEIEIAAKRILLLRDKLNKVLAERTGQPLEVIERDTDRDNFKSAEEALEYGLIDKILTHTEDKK
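Buffer: 100 mM Tris/HCl pH8, 100 mM KCl, 0.05% low protease BSA, 2.5% glycerol, 0.01% Tween-20. ClpP 10 microg/mL final; 20 min RT; delta FRET normalized to ADEP and DMSO controls.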
Sfp PPTase inh: qHTS Assay for Inhibitors of Bacillus subtilis Sfp phosphopantetheinyl transferase (PPTase). 4'-phosphopantetheinyl transferase ffp (Bacillus subtilis), Q9F4F7. Biochemical Sfp PPTase activity, qHTS. Potency, µM, inactives show max response, negative = inhibition, most hits filed as inhibitors. actives 3.5% (n = 310,000); active = well fitted inhibition curve with a large enough effect; inconclusive = small, poorly fitted or top-dose-only effect, or another doubt; inactive = no such curve, though single readings can be large or run the other way;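 note: the enzyme is Sfp with the accession as filed and its product quenches rhodamine fluorescence; potency is the fitted concentration of half-maximal effect; 0% = enzyme reaction without inhibitor and -100% = no enzyme wells; top concentration of the series not given in the record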
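Sfp 15 nM + cpd, 15 min RT; start w/ rhodamine-CoA 5 uM, BHQ-2-YbbR 12.5 uM (final); 50 mM Hepes pH 7.6, 10 mM MgCl2, 0.01% NP-40, 0.01% BSA; read 525/598 nm at 0 and 30 min.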
gsp antag: qHTS for Antagonists of gsp, the Etiologic Mutation Responsible for Fibrous Dysplasia/McCune-Albright Syndrome: qHTS; gsp-mutant cells, cAMP HTRF, 30 min; control for the full effect not named in the record; actives 0.4% (n = 340,000); Potency, µM (top dose mostly 76.9 µM), for the others: top-dose activity change, negative = inhibition, actives largely listed as inhibitors; AID 624288, 2012; active = falling curve of any shape with a large fitted effect; inconclusive = falling curve, mostly with a smaller effect; inactive = flat or rising curve; cell line not stated here;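 note: intracellular cAMP measured with PDE inhibitor Ro 20-1724 present during compound exposure; potency is the fitted concentration of half-maximal effect; % is set by controls: 0 for no effect and ±100 for the full control effect; nearly all actives have a fitted effect of over 65% in size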
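HTRF cAMP measurement after 30 min RT detection following 30 min, 37C compound treatment alongside […] (added as 300 uM solution) in G418-selected cells seeded at 2000/well and grown 16–24 h.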
TRPML1 blocker: qHTS for Inhibitors of the Human Mucolipin Transient Receptor Potential 1 (TRPML1); Mucolipin-1 (Homo sapiens), Q9GZU1; TRPML1-inducible cells, Ca2+ dye fluorescence, FDSS; active compounds read low; inhibition of EC80 agonist-evoked calcium signal; activity change, negative = inhibition, % (test concentration not listed); actives 0.02% (n = 390,000); AID 624415, 2012; in the data active means activity change below about -50%; inconclusive means about -30% to -50%; inactive means above about -30%;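 note: stimulus is agonist 54-4 at its EC80 concentration; % is set by controls: 0 for no effect and ±100 for the full control effect; compound concentration not given in the record; the text of the record puts the active cut at -80%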
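Calcium fluorescence in TRPML1-DL cells induced overnight with Tet: a 110 s read after compound pin addition, then a 110 s antagonist read after challenge with 54-4 at 4 uM final (EC80).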
* marks the source's active call; other numbers are inactive results; ? = inconclusive; nt = no result given; & = joins results of further samples; ! = not active in a repeat; [ ] = another dose, or the depositor's remark.

SMILES	gsp ag	TRPV1 PAM	Menin-MLL FL inh	ClpP mod	Sfp PPTase inh	gsp antag	TRPML1 blocker
O=C(OCC(=O)N1CCCC1)c1ccc(S(=O)(=O)N2CCOCC2)cc1	-5%	1	2.6	nt	15%	12%	49
O=C(Nc1cccn2ncnc12)c1ccc(Cl)cc1Cl	3%	15	-0.6	-6.1%	6%	11%	6
COC(=O)C1=C(C)N=C2SCCC(=O)N2C1/C=C/c1ccccc1 (centres undefined)	?	-5	5.6	0.2%	-22%	2%	12
CCOC(=O)c1cc(-c2ccccc2)nn1Cc1cc(CC)no1	?	27	nt	-3.5%	nt	-18%	4
C=CCN(CC=C)C(=O)Cn1cnc([N+](=O)[O-])n1	7%	1	2.6	1.6%	15%	-1%	-22
Cc1ccc(-n2[nH]c(C)c(/C=N/N3C(=O)c4cccc5cccc(c45)C3=O)c2=O)cc1	3%	12	-8.0	nt	20%	-10%	-4
O=C(Nc1cccc(-n2cnnn2)c1)c1cc(Cl)nc(Cl)c1	8%	-23	-1.5	-2.6%	-2%	-18%	31
Cc1ccc(Cn2c(/C=C/c3ccco3)nc3ccccc32)cc1	6%	-7	19	28µM*	?	5%	-1
NC(=O)CN1C(=O)NC(c2ccccc2)(c2ccccc2)C1=O	?	17	3.1	nt	17%	5%	-1
Cc1ccc(NC(=S)C2=C(O)c3sccc3N(C)S2(=O)=O)cc1	0%	-15	3.0	-0.6%	-28%	?	-5
COc1ccc(CCNC(=O)CN(C)S(=O)(=O)c2cccc3nsnc23)cc1OC	-8%	-4	-0.2	0.5%	1%	3%	11
Cc1ccc(S(=O)(=O)CCC(=O)OCC(=O)Nc2cc(F)ccc2C)cc1	-3%	-10	nt	0.7%	nt	-2%	6
CCCNC(=O)c1ccc(Cn2cc(-c3ccc(OC)cc3)nc2C(C)N)cc1 (centres undefined)	16%	9	nt	-14%	nt	-7%	-7
Cc1cc(OCC(=O)NNC(=O)c2cccnc2)cc(C)c1Cl	?	-12	nt	0.1%	2%	?	0
N#CCCN(C(=O)COC(=O)CCc1nc2ccccc2c(=O)[nH]1)c1ccccc1F	6%	5	nt	-0.8%	nt	-3%	29
Cc1ccc(S(=O)(=O)n2ccc3cccnc32)cc1	14%	26	0.0	2.5%	20%	-2%	-12
C=CCn1c(C#N)c(N)sc1=N	2%	1	11	-1.3%	6%	9%	4
COCCN(C(=O)C1=COCCO1)c1c(N)n(Cc2ccccc2)c(=O)[nH]c1=O	-35%	1	nt	-0.4%	19%	-3%	12
COCCn1c(SCCN2CCCCC2)nc2ccccc2c1=O	26%	-1	0.4	-2.9%	-6%	14%	8
CCOCCCn1c(=S)[nH]c2cc3c(cc2c1=O)OCO3	-9%	-19	3.8	-1.5%	11%	5%	-15
CCC(=O)Nc1sc2c(c1C#N)CC(C)(C)NC2(C)C	2%	-2	-0.6	0.1%	12%	12%	3
C[C@H](NC(=O)c1nc[nH]c1C(=O)N1CCN(C(=O)OC(C)(C)C)CC1)c1ccccc1	nt	4	nt	1.1%	nt	-4%	29
O=S(=O)(c1ccc(Br)cc1)N1CCC2(CC1)OCCO2	-46%[inhibitor]	-7	nt	-2.4%	13%	1%	-6
CCCCn1c(N)c(N(CCOC)C(=O)COC(=O)c2cc(CC)c(C)s2)c(=O)[nH]c1=O	4%	8	nt	-2.5%	nt	4%	-6
Cc1ccc(-c2nn3c(-c4ccccc4)nnc3o2)cc1	-40%[inhibitor]	nt	nt	-4.7%	nt	nt	-1
Cc1ccc2[nH]c(C(=O)O)c(NC(=O)CN3CCN(c4cccc(C)c4C)CC3)c2c1	10%	11	0.9	-7.6%	-3%	?	7
CCCOc1ccc(NC(=O)Cc2ccc(S(=O)(=O)N3CCOCC3)s2)cc1OCCC	-48%[inhibitor]	0	nt	-2.4%	nt	-15%	48
CCOC(=O)c1cc2c(nc1N)CC(C)(CC)OC2 (centres undefined)	3%	-7	-1.4	-2.7%	21%	3%	21
CCc1nccn1S(=O)(=O)c1ccc(Br)cc1Br	-14%	7	1.2	1.4%	8%	10%	-4
Cn1cc(C(=O)NCc2ccccc2F)cn1	22%	-3	-1.8	1.3%	18%	1%	-13
CCN(CC(=O)NCc1ccccc1Cl)CC(=O)Nc1c(F)cccc1F	-43%[inhibitor]	-9	-2.5	-1.2%	?	-2%	-13
CCOC(=O)[C@@H]1[C@H]2COc3cc(OC)ccc3[C@H]2N2C(=O)N(c3ccc(C(F)(F)F)cc3)C(=O)[C@@]12C	14%	17	0.2	-1.6%	9%	-6%	-17
NC(=O)Cc1nc(-c2ccc([N+](=O)[O-])cc2)cs1	-27%	23	2.4	nt	-10%	2%	11
CCN(CC)CCN(C(=O)c1ccc2ccccc2c1)c1nc2cc3c(cc2s1)OCO3	?	6	2.1	-14%	45µM*	-4%	-22
O=C1CCCN1CCCNS(=O)(=O)c1ccc(Cl)c(C(=O)N2CCOCC2)c1	5%	-5	-0.2	0.7%	20%	0%	-6
CN(C)S(=O)(=O)c1ccc(Cl)c(NC(=O)COC(=O)/C=C/c2ccco2)c1	-4%[15.4 µM]	17	2.5	nt	7%	-1%	-7

Records listed above printed as active in Sfp PPTase inh:
canonical_smiles | gsp ag | Menin-MLL FL inh | Sfp PPTase inh | TRPML1 blocker
CCN(CC)CCN(C(=O)c1ccc2ccccc2c1)c1nc2cc3c(cc2s1)OCO3 | ? | 2.1 | 45µM* | -22

Additional structures
SMILES	gsp ag	TRPV1 PAM	Menin-MLL FL inh	ClpP mod	Sfp PPTase inh	gsp antag	TRPML1 blocker
CCc1ccc2nc(N(CCCN(C)C)C(=O)c3ccc(S(=O)(=O)N4CCCC4)cc3)sc2c1	-3%	13	nt	-0.5%	1%	-4%	-9
C[C@H](NS(=O)(=O)c1ccc2c(c1)OCCCO2)C(=O)N1CCN(c2ccc(F)cc2)CC1	-27%	-2	nt	1.7%	nt	6%	-9
Cc1nccn1CC(=O)N/N=C/c1ccc(O)c(O)c1	nt	-8	2.0	nt	?	nt	nt
OCc1cc(C(O)CNCCCCCCOCCCCc2ccccc2)ccc1O (centres undefined)	nt	-6&-8	5.2&-0.4&1.6	4.9%	56µM*!	-1%	38
Cn1c([N+](=O)[O-])cnc1COC(N)=O	nt	-32	2.0	-1.8%	-7%&18%&26%	15%	16
CC(=O)C1=C(C)NC(=O)NC1c1ccc2c(c1)OCO2 (centres undefined)	-30%[inhibitor]	-14	10	nt	0%	-4%	-7
O=S(=O)(c1ccc(Cl)cc1)N1CCN(Cc2cccnc2)CC1	?	-2	-4.5	nt	10%	5%	1
O=C1NC[C@H](Cc2ccc(O)cc2)N(CCc2cccc3ccccc23)C1=O	14%	-5	-1.9	-1.7%	-4%	2%	18
COc1ccccc1C(=O)NC(=O)COC(=O)c1cccc(NC(C)=O)c1	0%[15.4 µM]	13	nt	-29%	11%	-5%	-4
Cc1nc2c(-c3ccc(F)cc3)c(C)nn2c(C)c1CCC(=O)N1CCN(c2ccc(F)cc2)CC1	0%	-18	0.0	0.1%&0.3%	?	-1%	9&-6
CCO[C@@H]1OC(C(=O)NCc2ccccc2)=C[C@H](c2csc3ccccc23)[C@H]1CCCO	-29%	-10	-0.8	0.4%	-3%	?	13
CCc1ccc(N(CC(=O)O)S(=O)(=O)c2c(C)noc2C)cc1	3%	2	3.1	-1.9%	16%	4%	13
NS(=O)(=O)c1ccc(CNC(=O)Cc2ccsc2)cc1	-12%	nt	nt	2.2%	nt	7%	-3
Cc1cc(C)cc(N(CC(=O)NCc2ccco2)S(=O)(=O)c2c(C)noc2C)c1	38%	nt	2.2	2.9%	10%	0%	28
CCN(CC)C(=O)N1CCC(NC(=O)c2ccccc2)CC1	3%	-1	-0.1	-0.5%	17%	11%	15
CN(C(=O)COC(=O)c1nc(Cl)ccc1Cl)C1CCS(=O)(=O)C1 (centres undefined)	-9%[15.4 µM]	1	nt	0.8%	11%	12%	11
CC12CC(c3ccccc3O1)C(/C(N)=N/NC(=O)c1ccc(F)cc1)C(=O)N2 (centres undefined)	-2%[15.4 µM]	1	0.6	nt	-7%	11%	-9
O=C(COc1ccc2ccccc2c1)N/N=C/C1CC=CCC1 (centres undefined)	-28%	-8	1.1	-0.8%	5%	11%	12
Cc1ccc(CN2CCN(Cc3ccc(-n4cccn4)cc3)CC2CCO)cc1 (centres undefined)	-3%[15.4 µM]	-3	4.5	nt	6%	-12%	2
COc1cc(C2c3cc4c(cc3OC(NCc3ccccc3)C2C)OCO4)cc(OC)c1OC (centres undefined)	8%	nt	nt	-0.2%	nt	17%	-17
COc1ccc(Br)cc1C(=O)Nc1cccc(C)c1C	-37%[inhibitor]	17	6.4	?	11%	21%	2
CCOC(=O)C(=CNc1ccc(O)c(C(=O)OC)c1)C(=O)OCC	nt	nt	nt	-6.6%	nt	-24%	31
CC(=O)Nc1ccc2c(c1)ncn2C1CCCCC1	-8%[15.4 µM]	nt	nt	-0.7%	nt	6%	41
CC1CCN(S(=O)(=O)c2ccc3c(c2)N(CC(=O)NCCCN(Cc2ccccc2)C(C)C)C(=O)CO3)CC1	4%	0	-15	-3.4%	9%	1%	21
CN(C)c1ccc(C=c2c3ccccc3n3c2c2ccccc2[n+]3C)cc1	-215%[inhibitor]	nt	nt	-12%	nt	?	4
COc1ccc(S(=O)(=O)N2CCOCC2)cc1NC(=O)c1ccc(Cl)cc1	-57%[15.4 µM]	-19	nt	nt	nt	8%	0
O=C(COC(=O)/C=C/c1ccccc1)NC1CCS(=O)(=O)C1 (centres undefined)	26%	-7	nt	0.9%	nt	1%	9
CCn1c(SCC(=O)c2cc(OC)ccc2OC)nnc1-c1ccncc1	44%	nt	nt	-1.9%	nt	5%	-12
